# Screens from PubChem.
# TRPML1 inh: human mucolipin-1 channel inhibition | Q9GZU1 | TRPML1-inducible cells, Ca2+ dye fluorescence, FDSS; hits give low values; inhibition of EC80 agonist-evoked calcium signal | activity change, negative = inhibition, % (no concentration beside the values) | actives 0.02% (n = 390,000); in the data active means activity change below about -50%; inconclusive means about -30% to -50%; inactive means above about -30%;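 further: stimulus is agonist 54-4 at its EC80 concentration; on the % scale 0 is the no-effect control and ±100 the full control effect; compound concentration not given in the record; the text of the record puts the active cut at -80%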
# Target sequence (Q9GZU1 whole entry, looked up): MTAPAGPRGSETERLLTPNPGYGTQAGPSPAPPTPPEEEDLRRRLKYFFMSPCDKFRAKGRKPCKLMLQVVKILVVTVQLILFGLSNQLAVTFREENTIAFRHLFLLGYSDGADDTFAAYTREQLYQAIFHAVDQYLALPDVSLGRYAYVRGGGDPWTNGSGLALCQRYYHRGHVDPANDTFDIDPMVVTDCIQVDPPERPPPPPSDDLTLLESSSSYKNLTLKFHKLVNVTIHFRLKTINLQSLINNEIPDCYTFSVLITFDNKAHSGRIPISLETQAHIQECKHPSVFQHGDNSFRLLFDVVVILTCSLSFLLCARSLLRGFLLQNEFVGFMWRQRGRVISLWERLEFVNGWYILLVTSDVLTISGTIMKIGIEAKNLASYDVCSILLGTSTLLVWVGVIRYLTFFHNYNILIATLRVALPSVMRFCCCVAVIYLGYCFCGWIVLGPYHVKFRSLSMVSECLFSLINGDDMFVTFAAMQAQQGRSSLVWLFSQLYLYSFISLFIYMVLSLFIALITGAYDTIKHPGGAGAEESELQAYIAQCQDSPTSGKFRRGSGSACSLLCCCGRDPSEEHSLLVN
#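 Calcium fluorescence in TRPML1-DL cells induced overnight with Tet: a 110 s read after compound pin addition, then a 110 s antagonist read after challenge with 54-4 at 4 uM final (EC80).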
# D2 agonist: human D2 receptor agonism in beta-arrestin assay. activation, % (no concentration beside the values). DiscoveRx PathHunter D2 beta-arrestin, luminescence, 90 min; 100% = 57 uM dopamine signal. actives 0.084% (n = 360,000). P14416. AID 624465; in the data active = activation above about 40%; inconclusive = about 15% to 40%; inactive = below about 15%; further: compound concentration not given in the record; the text of the record calls up to 30% inactive
# Target sequence (P14416 whole entry, looked up): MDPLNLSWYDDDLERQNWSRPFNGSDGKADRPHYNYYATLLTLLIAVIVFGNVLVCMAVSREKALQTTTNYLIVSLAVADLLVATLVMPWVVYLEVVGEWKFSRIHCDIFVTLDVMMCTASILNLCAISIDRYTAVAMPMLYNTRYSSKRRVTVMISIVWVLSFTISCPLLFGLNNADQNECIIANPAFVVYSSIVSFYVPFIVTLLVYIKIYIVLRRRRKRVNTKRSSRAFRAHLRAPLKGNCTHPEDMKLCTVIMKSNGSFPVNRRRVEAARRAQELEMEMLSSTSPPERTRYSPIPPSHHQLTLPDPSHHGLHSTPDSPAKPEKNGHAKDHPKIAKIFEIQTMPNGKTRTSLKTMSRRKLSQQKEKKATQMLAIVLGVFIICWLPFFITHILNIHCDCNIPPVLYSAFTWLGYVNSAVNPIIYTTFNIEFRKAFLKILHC
#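 Agonist mode: compounds alone added to overnight-plated D2 PathHunter cells for 90 min at 37 C, with 57 uM final dopamine (EC100) defining full response. Beta-arrestin recruitment detected by chemiluminescent reagent, read after 1 h at ambient temperature.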
# PINK1 expr mod: changes PINK1 expression. PINK1 immunofluorescence, high-content cytometry, 24 h. Potency, µM (doses to about 76.6 µM), for the others: at the top dose activation (PINK1 increase), usual class: activators. actives 0.2% (n = 410,000); active = well fitted activation curve with a large enough effect; inconclusive = small, poorly fitted or top-dose-only effect; inactive = flat fitted curve, though single readings scatter; cell line not stated here;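 further: potency means the concentration at half of the fitted maximal effect; % of control where 0% means no effect; nearly all actives have a fitted effect of over 65% in size; a mitochondrial uncoupler was the plate control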
#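 Cells are seeded, rested 12 hours, then given compound at five concentrations or DMSO for 24 hours. After fixation, blocking and antibody staining, PINK1 amount and mitochondrial localization are scored; CCCP serves as control.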
# TRPML1 agonist: activates the human TRPML1 channel. actives 0.12% (n = 410,000). TRPML1-expressing cells, Ca2+ dye fluorescence, FDSS; host cell line not named in the record; reference of the full effect not given here. activation, % (no concentration beside the values); in the data active = activation above about 50%; inconclusive = about 30% to 50%; inactive = below about 30%; further: 0% is about no effect; the text of the record puts the active cut at 80%
#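 Tetracycline-induced TRPML1-DL cells are seeded and incubated overnight before loading with a no-wash Ca2+ dye and quencher. Agonist activity is taken from the 110 s fluorescence read following compound pin-transfer on an FDSS, before EC80 54-4 challenge.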
# CtBP-E1A inh: inhibitors of CtBP/E1A interaction; AlphaScreen GST-E1A/His-CtBP binding, 1536-well; hits give low values; control for the full effect not named in the record; activity change, % (test concentration not listed); actives 0.49% (n = 340,000); in the data active means activity change below about -65%; inconclusive means about -30% to -65%; inactive means above about -30%; further: on the % scale 0 is the no-effect control and ±100 the full control effect; compound concentration not given in the record
#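 Steps: dispense buffer (Tris pH 8.0, NaCl 300 mM, TCEP 1 mM, BSA, Tween 20); add 5X protein mix (GST-E1A, His-CtBP, 125 nM each); pin 23 nL compound; 2 h at 37 °C, dark; add 5X beads (50 ug/mL); 1 h; read.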
# Six1-Eya2 inh: Six1/Eya2 interaction inhibition; actives 0.56% (n = 360,000); AID 651725; activity change, % (concentration not given with the values); AlphaScreen GST-Six1/His-Eya2 binding, biochemical; hits give low values; control for the full effect not named in the record; in the data active = activity change below about -65%; inconclusive = about -30% to -65%; inactive = above about -30%; further: on the % scale 0 is the no-effect control and ±100 the full control effect
#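 AlphaScreen luminescence read after one hour at 37 °C in darkness. Pin-transferred compounds met GST-Six1 and His-Eya2 protein (5X stock 250 nM/500 nM) plus glutathione donor and Ni-chelate acceptor beads (5X, 50 ug/mL).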
# Starred values were filed as active, the others as inactive; / = not tested or not shown; [ ] = remark or other dose.
# Values run as follows: D2 agonist	TRPML1 inh	TRPML1 agonist	CtBP-E1A inh	Six1-Eya2 inh	PINK1 expr mod
COc1ccc(-n2nnc3c(=O)n(Cc4cc(C)ccc4C)cnc32)cc1
    -1.9	-3	0.2	3	1	16%[38.3 µM]
Cc1ccc(NC(=O)c2c(C)oc3ccc(O)c(CN4CCCC4)c23)c(C)c1
    /	-1	-0.7	/	/	0.4%
Cc1ccc(-c2nnc(-c3ccc4c(c3)OCO4)o2)cc1
    -3.2	23	1.8	-3	15	5.8%
Cc1ccccc1NC(C)C(=O)N/N=C/c1c[nH]c2ccccc12 (centres undefined)
    -3.0	35	1.1	-19	-3	-1.0%
CCSc1nc2ccccc2c(=O)n1OCC(=O)OC
    -2.6	4	-0.1	3	4	-1.3%
NS(=O)(=O)c1ccc(NC(=O)CSc2ccccc2)cc1
    4.1	-1	0.5	/	0	0.5%
O=C(Nc1ccncc1)C1CCCN(S(=O)(=O)c2cccc3cccnc23)C1 (centres undefined)
    2.6	13	1.6	-23	-1	0.5%
CSc1nnc(Nc2ccccc2C)s1
    0.5	-4	4.2	4	1	-3.1%
CCOC(=O)CN1C(=O)C(=O)N(Cc2ccccc2)C1=O
    -1.4	3	0.3	7	15	0.6%
O=C(CSc1ccc(-c2ccco2)nn1)Nc1ccccc1F
    0.0	-6	0.1	-4	0	0.8%
CN1C(=O)c2ccccc2Sc2ccc(NC(=O)Nc3ccccc3F)cc21
    /	2	-0.5	/	/	-0.7%
CN1CCN(C(=O)/C(=C/c2ccc([N+](=O)[O-])cc2)NC(=O)c2ccccc2)CC1
    -2.4	61	0.0	-10	22	0.7%
C[C@]12CCC(=O)CC1=CCC1C3CC=C(C#N)[C@@]3(C)CC[C@@]12O (some centres undefined)
    7.0	-20	-0.1	/	0	-0.4%
CC(C)C(=O)c1cc2c(cc1NC(=O)c1cccs1)OCCO2
    -2.2	-5	1.8	20	10	12%[38.3 µM]
O=Nc1c(O)n(Cc2cccc(C(F)(F)F)c2)c2ccccc12
    -2.4	27	2.2	1	-1	6.3%
O=C(CNC(=O)c1ccco1)Nc1cc(Cl)ccc1N1CCOCC1
    -2.1	17	-0.3	-15	-13	-1.7%
CC(Oc1ccc(Br)cc1)C(=O)N1CCc2ccccc21 (centres undefined)
    -3.3	3	14	9	11	1.3%
Cc1ccc(C)c(NC(=O)Cn2c(=O)n(Cc3ccco3)c(=O)c3oc4ccccc4c32)c1
    /	-11	0.5	/	/	0.7%
Cc1ccc(NC(=O)c2noc3c2CCCCC3)cc1C
    -0.1	3	0.7	7	3	20%[38.3 µM]
COc1cc2c(cc1NC(=O)c1cccc([N+](=O)[O-])c1)oc1ccccc12
    -2.9	7	-0.2	4	7	2.4%

# Profiles, looked up by structure. Screens in order: D2 agonist | TRPML1 inh | TRPML1 agonist | CtBP-E1A inh | Six1-Eya2 inh | PINK1 expr mod
# Profile of `Cc1ccc(NC(=O)c2noc3c2CCCCC3)cc1C` → -0.1 | 3 | 0.7 | 7 | 3 | 20%[38.3 µM]
# Profile of `Cc1ccccc1NC(C)C(=O)N/N=C/c1c[nH]c2ccccc12` (centres undefined) → -3.0 | 35 | 1.1 | -19 | -3 | -1.0%

# Going on with the list:
# Values run as follows: D2 agonist	TRPML1 inh	TRPML1 agonist	CtBP-E1A inh	Six1-Eya2 inh	PINK1 expr mod
CC(=O)c1ccc(N2CCN(c3ccc(C(F)(F)F)cn3)CC2)cc1
    1.8	77	-0.1	29	-6	22%
O=C(CNC(=O)Cc1ccccc1)NCc1cccc(C(F)(F)F)c1
    -4.0	11	-1.5	0	-10	2.1%
O=C(Cc1ccc(S(=O)(=O)N2CCCC2)s1)Nc1cccc([N+](=O)[O-])c1
    0.5	1	-1.2	/	-12	4.5%
Cc1ccc2c(c1C)NC(=O)C21N2CCCC2C(C(=O)c2ccc3ccccc3c2)C12C(=O)Nc1ccccc12 (centres undefined)
    -4.1	46	-0.1	/	-18	3.9%
Cc1ccc2cc(CCNC(=O)C(C)C)c(=O)[nH]c2c1
    -2.2	22	-0.8	5	3	0.0%
Cc1ccc(-c2ocnc2C(=O)N2CCN(C(=O)c3cccs3)CC2)cc1
    -0.5	-15	1.6	2	0	-1.2%
Cc1ccc2c(c1)CCCN2C(=O)c1ccco1
    -1.7	-12	0.3	7	2	4.4%[38.3 µM]
Cc1cc(C)nc(N(C#N)Cc2ccccc2Cl)n1
    1.2	-3	-0.6	7	0	5.8%
COc1ccc2nc(N(Cc3cccnc3)C(=O)Cc3ccccc3)sc2c1
    /	53	4.2	/	/	9.7%
C=CC[C@@H](CC(=O)OC(C)(C)C)C(=O)OC[C@@H]1CCCN1C(=O)[C@@H](CC=C)CC(=O)N(CCO)Cc1ccccc1
    -0.5	-15	1.2	0	-4	0.4%
COCc1oc2ccc(NS(=O)(=O)c3ccc(C)cc3)cc2c1C(=O)OC
    /	-5	-0.6	/	/	0.0%
COc1ccc(NC(=O)C2CCN(C3=NS(=O)(=O)C(c4ccc(C)c(C)c4)=C3C)CC2)cc1OC
    /	-10	4.9	/	/	1.3%
COc1ccc(OCCNC(=O)c2ccc(C)cc2)cc1
    3.5	16	0.4	3	1	5.0%
CC(C)n1nc(C(=O)Nc2cccc(S(=O)(=O)N3CCCCC3)c2)c2ccccc2c1=O
    9.5	49	4.9	-5	-1	3.7%
CCOC(=O)c1cc2c(=O)n3cccc(C)c3nc2n(Cc2ccco2)c1=NC(=O)c1ccc(C)cc1
    -1.1	7	0.6	6	-1	5.6%
COc1ccc(C(CNC(=O)c2ccc(S(=O)(=O)N3CCCC3)cc2)N2CCOCC2)cc1 (centres undefined)
    -3.4	-10	0.3	0	19	0.6%
CC(=O)Nc1ccc(C(=O)N2CCc3cc4c(cc3C2C)OCCCO4)cc1 (centres undefined)
    -2.0	/	/	1	3	0.3%
CCN(C(=O)COC(=O)CNC(=O)c1ccc2ccccc2c1)c1c(N)n(Cc2ccccc2)c(=O)[nH]c1=O
    -0.8	1	0.9	-4	4	1.1%
CC(C)(C)N1CC(C(=O)Nc2ccc(S(=O)(=O)N3CCCCC3)cc2)CC1=O (centres undefined)
    -7.6	20	0.9	-19	4	2.1%
Cc1c(Cl)cccc1Nc1nn2c(=O)c3ccccc3nc2s1
    /	1	0.1	/	/	3.2%
O=C(O)c1cccc(N/N=C/c2cn(-c3ccccc3)nc2-c2cccs2)c1
    -16	-19	-0.3	1	-11	1.3%
O=C1/C(=C/c2cccs2)SC(=S)N1c1ccccc1
    0.0	-17	0.5	-7	-1	6.8%
CCCCc1nc2ccccc2c(C(=O)O)c1C
    1.8	-11	0.2	4	5	-3.9%[38.3 µM]
O=C1c2ccncc2C(=O)N1C1CCCCC1
    -0.8	-15	-0.9	2	7	-6.0%[38.3 µM]
CC1CCCCN1C(=O)c1ccc(C(=O)Nc2ccc(F)cc2)cc1 (centres undefined)
    -4.5	-5	-0.9	-2	-8	0.9%
COc1cccc(S(=O)(=O)Nc2cccc(C(=O)N3CCCCCC3)c2)c1
    0.1	-1	2.0	0	-1	-1.1%
CCCNC(=O)Cn1c(=O)cc(C)c2c(C)nn(-c3cccc(F)c3)c21
    /	-8	0.2	/	/	0.8%
c1ccc(-c2cc3ncccc3cn2)cc1
    -1.1	2	-1.2	4	0	0.3%
CCOc1ccc(S(=O)(=O)N2CCCC(C(=O)N3CCN(CC)CC3)C2)cc1Cl (centres undefined)
    -5.4	2	-0.1	-18	-7	3.2%
COc1ccc(CNC(=O)c2ccc(CS(=O)(=O)c3ccc(C)cc3)o2)cc1
    7.4	-5	1.2	/	8	1.3%
C[C@@H]1CN([C@H](C)CO)C(=O)CCCn2nncc2CO[C@H]1CN(C)Cc1ccccc1C(F)(F)F
    -8.8	22	-0.5	2	8	2.3%
CCCC1=Nc2cc(C(=O)N3CCN(c4ccccn4)CC3)ccc2Sc2ccc(C)cc21
    -0.7	20	0.1	-18	-15	3.1%
CCOC(=O)C1CCN(Cc2ccc(OC)c(OCc3ccccc3)c2)CC1
    -2.4	-17	-0.4	-23	-4	3.0%
COc1cccc(C(=O)C2CCCN(C(=O)c3ccc(C#CC(C)(C)O)cc3)C2)c1 (centres undefined)
    -3.7	-13	-0.2	/	11	3.2%
CCO[C@H]1OC(C(=O)N2CCN(Cc3ccccc3)CC2)=C[C@@H](C2CCCCC2)[C@@H]1CCCO
    2.7	20	-1.0	0	-5	1.5%
CCc1nnc(NC(=O)CCC(=O)NCCc2ccccc2)s1
    -0.2	5	-0.6	6	3	-0.3%
CN(C)CCCOC(=O)COc1ccc(Br)cc1
    -4.4	7	-0.5	/	3	0.5%
CN(CCc1ccccn1)C(=O)CCC1CCCN(C(=O)c2n[nH]c3c2CCCC3)C1 (centres undefined)
    0.0	-1	-0.9	5	-1	-0.4%
CCOc1cc(C)c(S(=O)(=O)NC2CC(C)(C)NC(C)(C)C2)cc1C
    -2.4	30	0.0	-11	6	-1.2%
COc1ccccc1-c1cc(NC(=O)COc2ccc(C)c(C)c2)n(-c2ccccc2)n1
    /	5	0.5	/	/	7.2%
CCOC(=O)c1c(C)c(C(=O)NCCc2ccccc2)c(C)n1C
    -11	30	0.9	/	-2	2.7%
CC(C)(C)OC(=O)N1CCC(c2cc(=O)n3[nH]c(-c4ccc(Cl)cc4)cc3n2)CC1
    -9.1	5	-0.6	2	-4	1.5%
CCC(=O)NNc1nc2c(Cl)cccc2s1
    6.0	4	0.0	5	1	-0.1%
CCc1cc2c(NCC3CCCO3)ncnc2s1 (centres undefined)
    0.6	-5	-0.2	1	3	1.9%
O=C1C=C(Nc2ccc(Cl)cc2)CC(c2ccccc2)C1 (centres undefined)
    -4.1	8	-0.7	0	1	2.0%
CC(=O)c1ccc(S(=O)(=O)Nc2ccc(-c3ccc4nnc(C)n4n3)cc2)cc1
    -3.2	-2	0.3	/	-7	1.7%
N#CCC(=O)Nc1ccc(C(=O)OCC(=O)Nc2ccccc2Sc2ccccc2)cc1
    3.9	11	-0.1	5	-6	5.2%
C=CC[C@@H](CC(=O)N[C@H](CO)Cc1ccccc1)C(=O)N[C@@H](COC(=O)[C@@H](CC=C)Cc1ccc(F)cc1)Cc1c[nH]c2ccccc12
    -2.2	-7	0.3	-2	0	0.1%
COc1ccc(/C=C2\SC(=O)N(CCC(=O)NCCCn3ccnc3)C2=O)cc1
    10	-7	-1.3	-2	-6	0.0%
CCOC(=O)C1CCN(C(=O)COC(=O)CSc2ccc(C(N)=O)cc2[N+](=O)[O-])CC1
    -1.1	-16	0.3	3	-11	2.3%
O=[N+]([O-])c1ccc(COc2ccccc2CN2CCCCC2)cc1
    2.6	-24	1.9	-11	-1	-1.4%
COC(=O)c1ccc(CSc2nc3c([nH]c4ccccc43)c(=O)n2-c2ccc(F)cc2)o1
    /	-8	2.6	/	/	0.2%
CC(=O)N1C[C@H]2CON(C)[C@H]2C[C@H]1c1cccc(-c2ccc(C#N)cc2)c1
    -11	32	0.2	-12	-2	1.6%
